# HSV augment – enhancers of HSV replication in host cells, fold increase, host cell viability | HSV replication augmentation in cells | hit rate 0.005% among 220,000 | maximum fold increase | AID 1956, 2009;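 active = peak rise of 1.5-fold or more in the series; inconclusive = self-fluorescent or not available for retest; tested in PC3 cells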;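 also: first round at 10 µM; read as green reporter fluorescence; hits show the peak of a series up to 25 µM; 1 = signal of infected wells without compound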
# RGS16-Gao – modulators of RGS16 binding to Galphao, primary screen, biochemical, human proteins, multiplexed bead flow cytometry. hit rate 0.38% among 220,000. binding response (% of control), % at 10 µM. bead-based flow cytometry RGS16-Galphao binding, fluorescence; actives lie on both sides. Regulator of G-protein signaling 16 (Homo sapiens) + Guanine nucleotide-binding protein …;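 active = below 25% or above 175%, edge rows of some plates excepted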;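 also: Galphao activated by GDP with aluminum fluoride before binding; 100% = wells without compound and 0% = beads without RGS; some results beyond the cut were filed as inactive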
# PKD1 inh – inhibitors of human PKD1 kinase, biochemical, fluorescence polarization; inhibition, %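 (about 10 µM by stock and volumes)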; hit rate 0.056% among 200,000; PKD1 kinase fluorescence polarization assay; AID 797, 2007;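 active = inhibition of 50% or more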;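 also: controls were vehicle for no effect and a reference inhibitor for full effect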
# Target sequence (Q15139 whole entry, looked up): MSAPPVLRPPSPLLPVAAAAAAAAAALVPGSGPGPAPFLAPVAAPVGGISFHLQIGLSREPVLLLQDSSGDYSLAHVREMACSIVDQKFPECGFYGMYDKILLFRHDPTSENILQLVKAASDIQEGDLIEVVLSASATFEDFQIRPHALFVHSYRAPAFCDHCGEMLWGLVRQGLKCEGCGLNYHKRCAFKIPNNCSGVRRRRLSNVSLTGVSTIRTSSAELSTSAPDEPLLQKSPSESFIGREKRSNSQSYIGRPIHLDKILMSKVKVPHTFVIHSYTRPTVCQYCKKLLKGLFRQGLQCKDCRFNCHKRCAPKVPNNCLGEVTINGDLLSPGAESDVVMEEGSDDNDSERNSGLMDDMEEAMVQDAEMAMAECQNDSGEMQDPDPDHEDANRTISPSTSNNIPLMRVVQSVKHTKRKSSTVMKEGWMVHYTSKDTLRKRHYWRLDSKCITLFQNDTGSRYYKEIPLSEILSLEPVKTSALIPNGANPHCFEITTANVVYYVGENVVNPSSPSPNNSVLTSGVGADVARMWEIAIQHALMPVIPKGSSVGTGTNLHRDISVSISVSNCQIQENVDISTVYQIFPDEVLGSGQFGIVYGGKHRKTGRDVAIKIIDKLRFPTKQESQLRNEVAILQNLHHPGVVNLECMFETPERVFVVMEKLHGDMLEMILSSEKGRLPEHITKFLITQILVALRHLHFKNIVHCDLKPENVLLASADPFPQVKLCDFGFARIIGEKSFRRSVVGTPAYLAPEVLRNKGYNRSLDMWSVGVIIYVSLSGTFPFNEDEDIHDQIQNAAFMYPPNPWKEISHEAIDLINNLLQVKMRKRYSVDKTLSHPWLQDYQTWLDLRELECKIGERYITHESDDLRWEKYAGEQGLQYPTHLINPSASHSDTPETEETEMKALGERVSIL
# INS promoter inh – inhibitors of insulin promoter-driven GFP, primary screen, imaging, TRM-6 cells (human fetal islet line), eGFP reporter, cell count; hit rate 0.9% among 130,000; inhibition, % at 2 µM; reporter expression induced with tamoxifen;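 active = inhibition above the mean plus 3 SD, with well images judged a real hit on visual review, cut at about 60% in these data, passing the limit was not always enough; inconclusive = inhibition over the cutoff but images rejected on review; inactive = inhibition not above the cutoff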
# GALR2 ag – GALR2 receptor agonists, primary screen, cell-based | hit rate 0.48% among 140,000 | Galanin receptor type 2 (Homo sapiens), O43603 | GALR2-expressing cells, agonist activation read-out | AID 803, 2007 | activation, %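 (tested at 5 µM)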;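 active = above mean plus 3 SD of all compounds, about 5% in these data, not always enough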;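 also: 0% = vehicle buffer wells and 100% = reference agonist at full effect; tested in CHO reporter cells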
# INS promoter inh cell count – recorded beside INS promoter inh, whose call it bears; normalized cell count, %; measured here: cell count, toxicity; reference of the scale not given here;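 cells exposed to compound for 48 h; stained nuclei by imaging scaled within each plate; lower means fewer cells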
# HSV augment primary fold – also measured in HSV augment; calls as there; fold increase; compound at 10 µM; measured here: primary screen fold increase 10 uM; tested in PC3 cells;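 GFP signal in the first replicate; 1 = infected wells without compound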
# * marks the source's active call; other numbers are inactive results; i = inactive; ? = inconclusive; . = no result given.
mol	INS promoter inh	GALR2 ag	PKD1 inh	INS promoter inh cell count	RGS16-Gao	HSV augment primary fold	HSV augment
Cc1ccc(NC(=O)CN2C(=O)S/C(=C\c3cc(C)n(-c4ccc(C(=O)O)cc4)c3C)C2=O)cc1	.	.	-5	.	105	1	i
CC(=O)Nc1ccc(OCC(O)Cn2c(C(C)C)nc3ccccc32)cc1 (stereo unspecified)	.	.	-11	.	100	0.93	i
CC1(C)CC(CCNC(=O)c2ccc(-n3cnnn3)cc2)CC(C)(C)N1	.	-2.0	6	.	103	0.96	i
Nc1cc(=O)[nH]c(SCC(=O)Nc2nc3ccc([N+](=O)[O-])cc3s2)n1	.	.	-4	.	51	0.95	i
CC(C)Sc1nc(N)nc(-c2cccs2)c1C#N	.	0.9	-3	.	91	0.91	i
Brc1cccc(OCCCN2CCCCCC2)c1	.	.	4	.	106	0.96	i
CCNC(=O)NC(=O)COC(=O)CCCc1nc2ccccc2s1	.	.	-3	.	90	1.1	i
COC(=O)Cn1c(CN2CCC(Cc3ccccc3)CC2)nc2c1c(=O)n(C)c(=O)n2C	.	-2.6	0	.	104	1.2	i
O=C(NCCNS(=O)(=O)c1ccc(Cl)cc1)c1cc(OCC(F)(F)F)ccc1OCC(F)(F)F	-47	4.3	-7	40	99	1	i
CCOC(=O)CSc1nnc(CNC(=O)c2cccs2)n1-c1cccc(C)c1	.	-2.6	10	.	87	1.1	i

# Three compounds from above, limited to INS promoter inh, PKD1 inh and INS promoter inh cell count.
SMILES,INS promoter inh,PKD1 inh,INS promoter inh cell count
O=C(NCCNS(=O)(=O)c1ccc(Cl)cc1)c1cc(OCC(F)(F)F)ccc1OCC(F)(F)F,-47,-7,40
Nc1cc(=O)[nH]c(SCC(=O)Nc2nc3ccc([N+](=O)[O-])cc3s2)n1,.,-4,.
CC1(C)CC(CCNC(=O)c2ccc(-n3cnnn3)cc2)CC(C)(C)N1,.,6,.

# Five of these compounds, set out differently.
# Order of results: INS promoter inh | GALR2 ag | PKD1 inh | INS promoter inh cell count | RGS16-Gao | HSV augment primary fold | HSV augment
> Brc1cccc(OCCCN2CCCCCC2)c1
 : . | . | 4 | . | 106 | 0.96 | i
> CCNC(=O)NC(=O)COC(=O)CCCc1nc2ccccc2s1
 : . | . | -3 | . | 90 | 1.1 | i
> COC(=O)Cn1c(CN2CCC(Cc3ccccc3)CC2)nc2c1c(=O)n(C)c(=O)n2C
 : . | -2.6 | 0 | . | 104 | 1.2 | i
> O=C(NCCNS(=O)(=O)c1ccc(Cl)cc1)c1cc(OCC(F)(F)F)ccc1OCC(F)(F)F
 : -47 | 4.3 | -7 | 40 | 99 | 1 | i
> CCOC(=O)CSc1nnc(CNC(=O)c2cccs2)n1-c1cccc(C)c1
 : . | -2.6 | 10 | . | 87 | 1.1 | i

# (continued)
mol	INS promoter inh	GALR2 ag	PKD1 inh	INS promoter inh cell count	RGS16-Gao	HSV augment primary fold	HSV augment
COc1ccc(C2c3[nH]c4ccccc4c3CCN2C(=O)Cc2nonc2C)c(F)c1 (stereo unspecified)	.	.	.	.	101	0.92	i
N#CCSc1ncccc1-c1nc2ccccc2[nH]1	-50	-1.4	-2	106	101	0.91	i
COC(=O)CCC(=O)N(CCN(C(=O)CCC(=O)OC)c1ccccc1)c1ccccc1	31	.	-4	102	100	0.97	i
O=C1c2ccccc2C(=O)N1CSc1nnnn1-c1ccccc1	-5	-0.5	8	152	95	1.1	i
Cn1cccc1Cc1nnc(SCC(=O)Nc2ccc3c(c2)OCCO3)n1CCc1ccccc1	.	-3.6	2	.	66	1.1	i
CCOc1cc(CNCc2ccncc2)cc(Cl)c1OC	-25	-0.8	-8	144	102	.	.
Cc1ccc(C(=O)OCn2nnc3ccccc3c2=O)cc1[N+](=O)[O-]	12	.	-1	169	98	0.99	i
CC12CCCCC1c1ccccc1C(=NCC(=O)O)N2 (stereo unspecified)	.	-1.5	-8	.	105	1.2	i
Cc1nc2ccc(NC(=O)COc3ccccc3[N+](=O)[O-])cc2s1	20	.	-7	115	106	0.94	i
NC(=O)CCCCC(=O)OCCCc1cccs1	.	-2.3	-11	.	103	0.64	i
Cc1[nH]c(=O)[nH]c(=O)c1NC(=O)c1sc2nc3c(C)cccc3cc2c1N	3	0.2	-4	121	102	.	?
O=C(Nc1nnc(CCN2CCCCC2)s1)c1ccc(Br)cc1	14	.	-1	117	102	0.94	i
COc1ccc(NC(=O)C2CCCN(S(=O)(=O)c3cccc4cccnc34)C2)cc1 (stereo unspecified)	.	-1.2	-6	.	116	0.83	i
CC(=O)NCCn1c(SCc2ccccc2F)nc2ccccc2c1=O	.	-0.4	5	.	100	0.72	i
Cc1ccc(OC(=S)Nc2ccc(O)cc2)cc1	-328	-1.9	6	59	110	0.84	i
Cc1ccc(-n2nnnc2-c2cnn(-c3ccc(F)cc3)c2C(F)(F)F)cc1	-53	-2.4	-8	94	80	0.95	i
CC(C)c1ccccc1NC(=O)COC(=O)c1cc(=O)[nH]c(=O)[nH]1	.	.	-5	.	102	1	i
Cc1ccc2oc(=O)c3cnn(CC(=O)N(CCN(C)C)Cc4ccco4)c3c2c1	.	-1.3	-15	.	91	1	i
Cc1ccc(NC(=O)Nc2ccc(Cl)cn2)cc1	0	.	3	145	103	1	i
c1ccc(OCc2noc(CN3CC[C@@H]4CCCC[C@H]4C3)n2)cc1	.	.	-3	.	101	1.1	i
CCC(N=c1cc(-c2ccc(OC)cc2)oc2ccc(C)cc12)C(=O)O (stereo unspecified)	13	-1.1	4	140	104	0.92	i
CC(Nc1nc(-c2ccccc2)nc2ccccc12)c1ccccc1 (stereo unspecified)	.	.	-9	.	119	0.76	i
COc1cc(C(=O)NCCCN(C)C)ccc1OCC(=O)Nc1cccc(C(F)(F)F)c1	29	.	-4	97	104	0.92	i
Cc1nnc(Sc2nc3c(c(=O)[nH]c(=O)n3C)n2CCc2ccccc2)s1	.	.	.	.	105	0.99	i
COc1cc(/C=C(\C#N)c2ccccn2)ccc1OCC(=O)Nc1c(Cl)cccc1Cl	-33	-0.2	-1	97	98	0.92	i
COc1ccc(NC(=O)CCn2nnc(-c3ccc(C)cc3)n2)cc1OC	66	-3.3	-6	91	108	0.75	i
COCc1cnc(C)nc1N	-100	.	-8	163	103	0.92	i
COc1ccc(NC(=O)CN2c3cccc4cccc(c34)S2(=O)=O)cc1	-8	-0.5	-2	110	101	0.99	i
O=S(=O)(NCc1csc(-c2ccccc2)n1)c1ccc(Cl)s1	29	-1.2	-5	94	97	.	.
N/C(=N/O)C(c1ccccc1)c1ccccc1	8	-0.6	-2	157	84	.	.
COc1ccc(NC(=O)C(c2ccc(OC)cc2)N(C)C(=O)CNC(C)=O)cc1 (stereo unspecified)	77*	-2.0	-10	101*	94	1	i
Cc1nn(-c2ccc([N+](=O)[O-])cc2)c(N)c1-c1ccccc1	.	.	-2	.	105	1	i
CCOC(=O)N1CCN(C(=O)CN(c2ccc(C)cc2)S(=O)(=O)c2c(C)noc2C)CC1	16	-1.4	-5	105	99	1.1	i
CC(=O)NS(=O)(=O)c1ccc(NS(=O)(=O)c2ccc(F)cc2)cc1	.	0.6	-4	.	91	1.1	i
CC(=O)Nc1ccc(S(=O)(=O)Nc2nc3ccccc3nc2-n2ccc(=NC(=O)c3ccccc3)cc2)cc1	.	.	.	.	101	0.99	i
Cc1cc(C)c2c(N)c3cccc(C)c3nc2n1	.	1.8	-10	.	101	0.83	i
Cc1nc2c(C(=O)NCCc3ccccc3)c[nH]n2c(=O)c1Cl	.	-0.8	-13	.	102	0.99	i
Cc1nn(-c2ccccc2Cl)c(Cl)c1/C=N/Nc1cccc(C(=O)O)c1	-33	-0.2	-1	136	95	1.1	i
COc1ccc2[nH]c(C)c(CCNc3ccc(C(F)(F)F)cc3[N+](=O)[O-])c2c1	-72	-1.1	13	80	103	0.91	i
ClCC1NCC(c2ccccc2Cl)c2c1[nH]c1ccccc21 (stereo unspecified)	i	.	-6	115	103	1.2	i
O=C(NCc1ccco1)C1CCC(N2C(=O)c3ccccc3C2=O)CC1 (stereo unspecified)	.	-1.1	7	.	109	0.79	i
O=C(Nc1ccc(F)cc1)N1CCC(c2nc3c(nnn3Cc3cccc(Cl)c3)c(=O)[nH]2)CC1	.	-0.7	3	.	101	1.1	i
O=C(CSc1nnnn1-c1cccc(F)c1)Nc1nc2ccccc2s1	-13	-1.1	-11	167	99	1.1	i
COc1ccc(N2CCN(c3oc(-c4ccccc4OC)nc3C#N)CC2)cc1	-36	-2.4	-8	87	83	.	.
C=CCn1c(-c2cccc(S(=O)(=O)N(CC)CC)c2)n[nH]c1=S	.	.	-4	.	93	1	i
O=C1CC(=O)N(c2ccccc2)N1c1ccccc1	-45	0.5	-9	143	100	1.1	i
O=C(c1c(F)c(F)c(F)c(F)c1F)N1CCN(c2cccc(C(F)(F)F)c2)CC1	0	-0.4	-14	251	99	0.86	i
CCOC(=O)C(=CNc1ncccc1C)C(=O)OCC	.	-0.4	7	.	108	0.81	i
O=C(O)CCCCCNS(=O)(=O)c1c(Cl)cccc1Cl	.	-1.8	0	.	120	0.81	i
O=C(Nc1ccccc1C(=O)N1CCCCCC1)c1ccccc1Cl	36	.	-3	118	107	0.89	i

# The results go on:
mol	INS promoter inh	GALR2 ag	PKD1 inh	INS promoter inh cell count	RGS16-Gao	HSV augment primary fold	HSV augment
COCCCN1C(=O)c2ccc(C(=O)Nc3ccc(OC)cc3)cc2C1=O	-63	0.8	-5	82	199	1.1	i
Cc1cccc(-n2nnnc2SCn2nnc3ccccc3c2=O)c1	67	-1.2	-18	51	101	0.89	i
CCC/C(C)=N\Nc1nc2c(c(=O)n(C)c(=O)n2C)n1C	.	.	.	.	101	0.77	i
Cc1sc2ncnc(N3CCN(C(=O)c4ccco4)CC3)c2c1C	-38	.	8	96	99	0.89	i
COC(=O)COc1ccc(/C=N/NC(=O)c2ccc(N(Cc3ccccc3)S(C)(=O)=O)cc2)cc1	22	-0.6	-5	94	52	0.69	i
O=C(N/N=C/c1c[nH]c2ccccc12)C1CC(=O)N(c2ccccc2)C1 (stereo unspecified)	6	.	-2	140	108	1	i
Cc1ccc(O)c(-c2cc(C(=O)Nc3cccnc3)[nH]n2)c1	.	.	.	.	101	0.95	i
COc1ccc2c(=O)c3c(=O)n(Cc4ccco4)c(C(C)C)nc3oc2c1	-6	-0.3	-5	34	107	1	i
Cc1cccc(N(CC(=O)N=Nc2c(O)[nH]c3ccccc23)S(C)(=O)=O)c1C	4	-1.7	-11	68	99	0.78	i
O=C(NCCc1ccc(Cl)cc1)C1CC(=O)N(C2CCCCC2)C1 (stereo unspecified)	.	-3.6	-7	.	.	1	i
Cc1ccc(-c2[nH]ncc2CNCCc2cnn(-c3ccccc3)c2)cc1C	.	.	.	.	100	0.8	i
COc1c(Br)cc(C(N)=O)cc1OCc1ccccc1	3	0.1	2	85	-1.3*	0.87	i
O=C(NC1CC1)C1CCN(c2ncnc3c2sc2cccc(F)c23)CC1	.	0.8	2	.	101	0.89	i
CCCc1ccc(C(=O)CCC(=O)O)cc1	-39	-1.8	-1	98	108	0.74	i
O=C(CSCc1ccccc1Cl)Nc1ccc2c(c1)OCCO2	39	-0.8	6	93	141	0.91	i
CC1CN(C(=O)c2ccn(C)n2)CC(C)O1 (stereo unspecified)	25	-1.4	-7	83	106	1	i
CC(=O)n1c2ccccc2c2nc(NC(C)C)sc21	9	-1.0	-5	97	105	1	i
Oc1cccc(/C=N/Nc2cccc3cccnc23)c1	57	.	-4	76	150	0.97	i
COC(=O)COc1cc(OCC(=O)OC)c2c(C)c(Cl)c(=O)oc2c1	19	1.5	1	145	97	0.94	i
Cc1ccccc1C(=O)NCCNc1ccc([N+](=O)[O-])cc1	.	.	0	.	104	0.94	i
COc1ccc(CNc2ncnc3cc(Cl)ccc23)cc1OC	.	.	-5	.	102	1	i
COC(=O)CC1C(=O)NCCN1C(=O)Nc1ccc(Cl)cc1 (stereo unspecified)	54	-1.2	0	143	102	1.2	i
CCOc1cc(CNCCO)cc(Br)c1OCc1ccc(Cl)cc1	2	3.2	5	70	100	.	.

# Compound activity (PubChem)
